Screens from PubChem BioAssay.
miR-21 FLuc – qHTS Assay for Modulators of miRNAs and/orActivators of miR-21 | HeLa miR-21 FLuc reporter, luciferase, 48 h | 340,000 tested, under 10 active | Potency, µM (top dose mostly 38.3 µM), for the others: top-dose reporter change, positive = more light; active = well fitted rising curve with a large enough effect; inconclusive = small, poorly fitted or top-dose-only effect; inactive = no such curve, though single readings can be large or run the other way;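 further: % of control where 0% means no effect; miR-21 action dims this reporter so a rising signal means less miR-21 action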
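Luminescence from a firefly luciferase reporter carrying a miR-21 binding site downstream, stably expressed under a CMV promoter in HeLa cells that make miR-21 endogenously, reports miRNA modulation after 48 h compound exposure up to approximately 40uM final.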
Rango-impB inh – qHTS Assay for Inhibitors of Rango (Ran-regulated importin-beta cargo) - Importin beta complex formation. Importin subunit beta-1 (Homo sapiens), Q14974. Rango CFP/YFP FRET sensor + importin beta, 45 min. Potency, µM (top dose mostly 92.2 µM), inactives show at the top dose inhibition of complex formation. 340,000 compounds, 0.031% hits; active = rising FRET ratio curve, often small or poorly fitted; inconclusive = mostly compound fluorescence or quenching in the first reads; inactive = flat curves in all reads;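 further: potency means the concentration at half of the fitted maximal effect; 0% = DMSO wells and 100% = buffer wells lacking importin beta; nearly all actives have a fitted effect of over 15% in size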
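FRET biosensor (snurportin 1 IBB flanked by EYFP and cerulean), 50 nM, with compound 5 min, then 0.125 microM importin beta in PBS, 1 mM DTT, 0.02% Tween-20, 0.1% BSA. CFP/YFP ratio read after 45 min at room temperature; pre-read flags interference.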
Rango dissoc inh – qHTS Assay for Inhibitors of RanGTP induced Rango (Ran-regulated importin-beta cargo) - Importin beta complex dissociation; Potency, µM (doses to about 46.1 µM), for the others: at the top dose activity change, negative = inhibition; Snurportin-1 (Homo sapiens) + GTP-binding nuclear protein Ran (Homo sapiens) + Importin …; 340,000 compounds, 0.071% hits; Biochemical FRET Rango-importin beta, RanGTP-induced dissociation; active means falling FRET ratio curve, often poorly fitted, with flat reads before Ran was added; inconclusive means other falling curves, or compound fluorescence or quenching; inactive means flat or rising ratio curve;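 further: potency means the concentration at half of the fitted maximal effect; % of control where 0% means no effect; nearly all actives have a fitted effect of over 45% in size; -100% = wells without RanGTP and RCC1; the record marks most hits as doubtful in a second field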
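Quantitative HTS using a FRET biosensor: 0.1 uM Rango, 0.25 uM importin beta, 0.6 uM Ran, 2 mM GTP, 0.2 uM RCC1 final, PBS with DTT, Tween-20 and BSA. Post-read taken 45 min after Ran addition.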
GLA inh pH 4.5 – qHTS Assay for Inhibitors of Human alpha-Galactosidase at pH 4.5; Alpha-galactosidase A (Homo sapiens), P06280; purified enzyme, 4-MU-alpha-Gal fluorescence, pH 4.5; activity change, negative = inhibition, % at 105 µM; 230,000 tested, under 10 active; inconclusive = small, poorly fitted or top-dose-only inhibition, or a rising curve; inactive = flat fitted curve, though single readings scatter; no compound was filed as active;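 further: 0% = full activity with enzyme and -100% = basal without enzyme; dose as in the result columns while the protocol names 77 µM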
Target sequence (P06280 whole entry, looked up): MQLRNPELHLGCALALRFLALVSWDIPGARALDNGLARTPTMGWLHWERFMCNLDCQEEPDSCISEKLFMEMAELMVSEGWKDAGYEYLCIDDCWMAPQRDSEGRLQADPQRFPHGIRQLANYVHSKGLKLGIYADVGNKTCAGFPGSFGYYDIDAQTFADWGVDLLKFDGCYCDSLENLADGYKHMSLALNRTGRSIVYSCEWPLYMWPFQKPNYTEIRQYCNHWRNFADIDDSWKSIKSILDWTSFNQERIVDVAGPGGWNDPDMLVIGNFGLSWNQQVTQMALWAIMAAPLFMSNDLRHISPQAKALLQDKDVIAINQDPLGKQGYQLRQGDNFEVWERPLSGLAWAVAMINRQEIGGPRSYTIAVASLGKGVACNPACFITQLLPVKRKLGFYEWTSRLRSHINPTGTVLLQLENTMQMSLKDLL
Active calls of the source: *; ? = inconclusive; . = not tested or not shown; & = joins results of further samples. These rows are one share of the data; rates above refer to the full screens.

SMILES	miR-21 FLuc	Rango-impB inh	Rango dissoc inh	GLA inh pH 4.5
CCN(CC)C(=O)COc1coc(CN2CCN(c3ccc(F)cc3)CC2)cc1=O	0%	-2.6%	-13%	.
O=C(Nc1cccc(O)c1)c1cnn2cccnc12	-36%	0.0%	5%	1
COc1cccc(CCN2CCC(CNS(=O)(=O)c3cc(-c4cc(C)no4)ccc3C)CC2)c1	25%	-0.6%	1%	.
O=[N+]([O-])c1ccc(N2CCN(Cc3ccc(Br)o3)CC2)cc1	12%	5.5%	-6%	.
CCN(C(=O)Cc1c(C(=O)O)[nH]c2ccccc12)c1cc(OC)ccc1OC	-5%	-3.8%	8%	6
CCOC(=O)CSCC(NC(=O)OC(C)(C)C)C(=O)OCC (stereo unspecified)	13%	0.0%	4%	0
Cc1ccc(C(=O)NCCN2C3=NC[C@@H](Cc4ccccc4)N3C[C@H]2Cc2ccc(O)cc2)cc1Br	23%	1.6%	6%	1
CC(=O)Nc1ccc(SCC(=O)Nc2ccccc2N2CCOCC2)cc1	.	0.3%	-3%	.
COc1ccc(C2=NN(C(=O)c3cccs3)C(c3ccccc3OC)C2)cc1OC (stereo unspecified)	-11%	0.4%	2%	-7
O=C(NCCN1CCOCC1)c1cc(-c2cccc(O)c2)on1	-34%	1.8%	13%	.
Cc1nn(CC(=O)OCC(=O)c2ccc(OC(F)F)cc2)c(C)c1[N+](=O)[O-]	.	?	-3%	.
O=C(/C=C/c1ccccc1O)c1ccc(Cl)cc1	-25%	-0.7%	-3%	-2
COc1ccc(S(=O)(=O)N2CCCC(C(=O)NCc3ccc4c(c3)OCO4)C2)cc1 (stereo unspecified)	5%	3.1%	-3%	7
COc1ccccc1-n1c(SCC(=O)NC2CCCC2)nc2cccnc21	-7%	-6.1%	-12%	0
CNC(=O)COC(=O)c1cc2c(C)nn(-c3ccc(F)cc3)c2s1	-2%	-1.0%	-6%	0
CCOC(=O)C1=C(C)N(C[C@@H]2CC[C@@H](Cc3ccc(-c4ccccc4)cc3)O2)C(=O)NC1c1cccc([N+](=O)[O-])c1 (stereo partly specified)	.	-1.3%	-6%	.
COC(=O)C1=CN(c2ccc(F)c(F)c2)C=C(C(=O)OC)C1c1ccc([N+](=O)[O-])cc1	1%	2.2%	0%	.
Cc1nc2ccccc2c(=O)n1CCCn1ccnc1	-8%	-0.3%	-1%	-5
O=C(NC1CC1)C1=C[C@@H](C2CCCCC2)C[C@@H](OCCCCO)O1	2%	-4.6%	4%	-2
CCOC(=O)Cn1c(=O)c2c(nc(Br)n2Cc2ccccc2)n(C)c1=O	-1%	.	.	-13
O=C(CBr)N1CCc2ccccc2C(c2ccccc2)C1 (stereo unspecified)	11%	-2.0%	-5%	3
CCCC(C(=O)NNC(=O)c1cc(C)oc1C)c1ccccc1 (stereo unspecified)	.	3.6%	1%	.
NS(=O)(=O)c1ccc(CCNC(=O)CSc2ccc([N+](=O)[O-])cc2)cc1	0%	2.5%	-12%	.
COc1ccc2cc3cc(C(=O)NCCCN4CCc5ccccc5C4)sc3nc2c1	-59%	-2.3%	-8%	3
CC1(C)CC(=O)c2cc(C(=O)NCc3ccco3)c(=O)n(-c3ccc(Cl)cc3)c2C1	1%	-2.5%	-17%	-2
CC(C)Cn1c(-c2cccs2)nc2ccccc21	1%	-1.8%	1%	4
CCCNC(=O)C(=O)NCc1ccccn1	-1%	-0.1%	22%	1
COc1ccc(C(CC(=O)N2CCN(c3ccccc3)CC2)c2c(O)cc(OC)cc2OC)cc1 (stereo unspecified)	8%	-5.9%	68%	-4
COc1ccc(/C=N/Nc2nnc(Cc3ccccc3)c(=O)[nH]2)cc1OC	-26%	-0.5%	-5%	-11
O=C(Nc1ccc(F)cc1F)c1ccc2ncsc2c1	-65%	-2.5%	-2%	.
C=CCNC(=O)c1c(Cl)cnn1-c1ccc(C)cc1	-52%	-0.6%	-4%	8
COc1ccc(COC(=O)c2n[nH]c3ccccc23)cc1F	-59%	1.6%	-14%	-8
CC(C)(NC(=O)N1CCOCC1)c1cccc(C(C)(C)NC(=O)N2CCOCC2)c1	.	-0.4%	-8%	.
CCOC(=O)C1CCN(C(=O)CN(C)S(=O)(=O)c2ccc3c(c2)c(=O)n(C)c(=O)n3C)CC1	-3%	-4.1%	5%	.
COc1ccc2c(c1)N(C)/C(=C1/SC(=NCc3ccccc3)N(c3ccccc3)C1=O)S2	-5%	-4.1%	-1%	3
O=S(=O)(c1ccc(-c2ccccc2)cc1)N1CCCCC1	1%	-2.6%	-17%	.
N=C1/C(=C\c2coc3ccc(O)cc3c2=O)C(=O)N=C2SC=CN12	12%	?	?	-2
O=C1CN(C(=O)COC(=O)c2oc3ccccc3c2COc2ccccc2)c2ccccc2N1	-4%	0.0%	-6%	-5
COC(=O)c1cn(CC(=O)Nc2ccc(OC)cc2)c2ccccc12	-6%	?	-4%	.
CC(C)(Cc1cc(CC(C)(C)C(=O)O)cc(C(C)(C)C)c1)C(=O)O	-10%	4.0%	-9%	.
CCS(=O)(=O)N1CCC(C(=O)N2CCOCC2)CC1	-1%	-0.3%	23%	-2
Nc1ncnc2c1ncn2[C@@H]1O[C@H](CNCc2ccc(OCC(=O)Nc3nccs3)cc2)[C@@H](O)[C@H]1O	.	-1.0%	18%	.
COc1ccc2c3n(nc2c1)CCN=C3c1ccc(C)cc1	.	-1.4%	-2%	.
COc1cc(NC(=O)c2noc(C)c2[N+](=O)[O-])c(OC)cc1Cl	-5%	1.8%	12%	.
CCc1ccccc1N(C(C)=O)c1nc(CN=C=S)cs1	4%	-2.8%	-9%	5
O=C(CSc1nc2ccccc2s1)NC1CCS(=O)(=O)C1 (stereo unspecified)	-8%	-6.0%	0%	2
CCc1ccc(CNC(=O)C2Cc3cc(S(=O)(=O)N4CCCC4)ccc3N2C(C)=O)cc1 (stereo unspecified)	-17%	7.6%	-1%	.
O=C1CCCN1CCCNC(=S)Nc1ccc(Cl)cc1Cl	-6%	1.7%	4%	-3
O=P(CCO)(c1ccccc1)c1ccccc1	1%	4.5%	?	10
O=[N+]([O-])c1ccc2c(c1)Nc1nc3ccccc3nc1N2	-24%	?	?	.
CN1CCN(Cc2nc3cc(NC(=O)COc4ccc([N+](=O)[O-])cc4)ccc3n2C)CC1	-1%	0.1%	-12%	.
Cc1cc2ccccc2c(=O)n1CC(=O)NCC(=O)N1CCCC1	0%	-3.7%	8%	-6
Cc1ccc2c(c1)N(CC(=O)N(Cc1ccccn1)Cc1ccco1)C(=O)C(C(C)C)O2 (stereo unspecified)	11%	?	-12%	-5
COC(=O)C1C(c2ccccc2)C(C(=O)OCc2ccco2)C1c1ccccc1 (stereo unspecified)	15%	-4.5%	0%	-13
COc1ccc(-c2nnc(SCC(=O)N3CCCC3)o2)cc1OC	.	4.8%	10%	.
Cc1ccc(NC(=O)CCNS(=O)(=O)c2ccccc2F)cc1S(=O)(=O)N1CCOCC1	.	3.9%	-16%	.
Cc1cc(=O)[nH]c(SCn2nnc3ccccc3c2=O)n1	-8%	3.0%	4%	-2
CC(C)C(=O)Nc1ccnc(-c2cccnc2)n1	5%	-3.9%	1%	3
COc1cc2nc(CN(C)Cc3nc4ccccc4c(=O)[nH]3)[nH]c(=O)c2cc1OC	8%	3.3%	-23%	12
O=C(CN1CCC(O)(c2cccc(F)c2)CC1)NCCc1c[nH]c2ccccc12	12%	1.0%	17%	0

(continued)
SMILES	miR-21 FLuc	Rango-impB inh	Rango dissoc inh	GLA inh pH 4.5
CC1=C(C(=O)OCc2ccccc2)C(c2cccc([N+](=O)[O-])c2)NC(=O)N1CCCCCC(=O)O (stereo unspecified)	-17%	8.8%	-9%	4&-6
Cc1ccccc1C(=O)Nc1ccnn1C1CCN(C2CCSCC2)CC1	-2%	-5.2%	0%	.
O=C(c1ccco1)N1CCN=C1SCc1c(F)cccc1Cl	-3%	-1.1%	-1%	-4
CCCC1(C(=O)OCC)NC(c2ccc(N(C)C)cc2)C2C(=O)N(c3ccc(OCC)cc3)C(=O)C21 (stereo unspecified)	-6%	-1.3%	8%	0
CS(=O)(=O)N(Cc1ccccc1)c1ccc(C(=O)NCC2CCCO2)cc1 (stereo unspecified)	0%	-0.7%	17%	1
O=c1cccc(-c2ccccc2)[nH]1	2%	-3.5%	-6%	7
O=C(NC1CCCCCC1)c1cccc(N2CCCC2=O)c1	-26%	-0.9%	1%	4
Cc1ccc(N(C(=O)CNC(=O)c2ccco2)C(C(=O)NC2CCCC2)c2cccnc2)cc1 (stereo unspecified)	-6%	0.9%	-2%	.
O=C(OCc1nnc(-c2ccccc2)o1)C1CCN(S(=O)(=O)c2cccs2)CC1	1%	-0.1%	5%	-8
CN(C)CCO[C@@H](c1ccc(Cl)cc1)c1ccccn1	-5%	0.4%	12%	5
CCOc1ncccc1C(=O)OCC(=O)N1c2ccccc2CC1C (stereo unspecified)	.	-0.4%	18%	.
CC(C)CC1NC(=O)N(CCCCN2C(=O)c3ccccc3C2=O)C1=O (stereo unspecified)	0%	3.5%	10%	-6
O=C(O)c1cc(-c2ccc(O)cc2)nc2ccccc12	-1%	.	.	4
CCCn1c2c(c(O)c(C(=O)Nc3ncccc3C)c1=O)CCCC2	-17%	1.8%	1%	-2
Oc1ccc(C=Nc2cccc3ncccc23)c(O)c1	4%	?	?	-3

Exported with values under each structure: part of the list above
Every second line gives: miR-21 FLuc | Rango-impB inh | Rango dissoc inh | GLA inh pH 4.5
- Cc1nn(CC(=O)OCC(=O)c2ccc(OC(F)F)cc2)c(C)c1[N+](=O)[O-]
 : . | ? | -3% | .
- COc1cccc(CCN2CCC(CNS(=O)(=O)c3cc(-c4cc(C)no4)ccc3C)CC2)c1
 : 25% | -0.6% | 1% | .

The main list resumes, starting 3 compounds before the break.
SMILES	miR-21 FLuc	Rango-impB inh	Rango dissoc inh	GLA inh pH 4.5
O=C(O)c1cc(-c2ccc(O)cc2)nc2ccccc12	-1%	.	.	4
CCCn1c2c(c(O)c(C(=O)Nc3ncccc3C)c1=O)CCCC2	-17%	1.8%	1%	-2
Oc1ccc(C=Nc2cccc3ncccc23)c(O)c1	4%	?	?	-3
CCOC(=O)c1cc2n(c1C)-c1ccccc1C2=O	-32%	-2.7%	12%	6
CCN(CC)S(=O)(=O)c1ccc(C)c(NC(=O)COC(=O)CCC(=O)c2cccs2)c1	.	1.6%	1%	.
C=CCn1c(COc2ccccc2)nnc1SCC(=O)Nc1ccc(S(N)(=O)=O)cc1	-2%	0.1%	-8%	-2
COc1ccc(OC)c(/C=C2/Sc3ccccc3C2=O)c1	-18%	?	?	-14
COc1ccc(-c2nnc(SCC(=O)Nc3c(Cl)cc(Cl)cc3C(=O)O)o2)cc1	.	0.7%	19%	.
O=C(NCCCN1CCN(c2ccccc2)CC1)C1CCCN(c2ncnc3c2nc2n3CCCCC2)C1 (stereo unspecified)	2%	-0.4%	1%	.
O=C(Nc1ccc(N2CCCC2)cc1)c1cccc(F)c1	-45%	-0.1%	12%	-6
Cc1ccc2cc(CCNC(=O)CC(C)C)c(=O)[nH]c2c1	-6%	-0.2%	7%	-1
O=C(CSc1nnc(NCc2ccccc2)s1)c1ccco1	-30%	0.7%	2%	7
O=c1[nH]c2ccccc2n1Cc1ccc(F)cc1	1%	0.0%	0%	.
Cn1ncc2cc(NC(N)=S)ccc21	-9%	-1.1%	-19%	7
COc1ccc(/C=C(\NC(=O)c2ccc(OCC(C)C)cc2)C(=O)OCc2ccco2)cc1	-8%	-1.4%	13%	-3
CN(C)c1cccc(C(=O)N(C)C2CCCN(Cc3ccccc3F)C2)c1 (stereo unspecified)	9%	0.3%	2%	.
